# Screens deposited in PubChem BioAssay by National Center for Advancing Translational Sciences (NCATS).
# 2A StopGo: FMDV 2A StopGo reporter, luciferase signal | human cells with a luciferase reporter of 2A StopGo recoding; control for the full effect not named in the record | Potency, µM (series often up to 57.9 µM), inactives show at the highest dose signal change, negative = less light | hit rate 1.2% among 410,000 | AID 1159524; active = well fitted falling curve with a large enough effect; inconclusive = small, poorly fitted or top-dose-only effect; inactive = no such curve, though single readings can be large or run the other way; tested in HEK293T cells; further: on the % scale 0 is the no-effect control and ±100 the full control effect; nearly all actives have a fitted effect of over 45% in size; luciferase light after 4 h
# Cruzain noTriton: inhibitors of Trypanosoma cruzi cruzain without detergent; P25779; purified cruzain, Z-FR-AMC fluorescence, no detergent; Potency, µM, inactives show max response, negative = inhibition, usual class: inhibitors; hit rate 2.3% among 200,000; AID 1476;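 further: plate controls were enzyme without inhibitor for no effect and buffer without enzyme for full effect; nearly all actives have a fitted effect of over 40% in size; top concentration of the series not given in the record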
# Target sequence (P25779 123-467 limits assumed): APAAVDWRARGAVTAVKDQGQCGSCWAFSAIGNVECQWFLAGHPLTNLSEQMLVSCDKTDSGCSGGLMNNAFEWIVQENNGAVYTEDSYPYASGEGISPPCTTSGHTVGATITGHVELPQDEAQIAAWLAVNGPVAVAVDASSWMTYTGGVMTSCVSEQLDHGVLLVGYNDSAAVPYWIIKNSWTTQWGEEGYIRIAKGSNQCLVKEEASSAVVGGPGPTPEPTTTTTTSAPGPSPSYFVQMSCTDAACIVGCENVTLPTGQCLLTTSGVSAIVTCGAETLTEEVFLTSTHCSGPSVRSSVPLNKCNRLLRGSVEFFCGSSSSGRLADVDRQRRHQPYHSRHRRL
#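 Purified cruzain at 1.5 nM, pre-incubated 15 min with compound at room temperature in 100 mM sodium acetate pH 5.5, 5 mM DTT, 0.00005% Triton X-100. Reaction started with 2 uM Z-FR-AMC; AMC fluorescence increase over 60 s gives rate.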
# NS1 function inh: blocks influenza NS1 protein function; S. cerevisiae slowed by influenza A NS1, growth recovery by OD600; hit rate 0.4% among 270,000; AID 2326; Potency, µM (doses to about 46.1 µM), for the others: at the highest dose activity, positive = more growth; active means well fitted rising curve with a large enough effect; inconclusive means small, poorly fitted or top-dose-only effect; inactive means no such curve, though single readings can be large or run the other way; further: nearly all actives have a fitted effect of over 50% in size
#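 A cell-based growth assay was used: compounds that relieve NS1-induced slow growth of budding yeast raise OD600. Assay medium was yeast nitrogen base with ammonium sulphate and -URA supplement, pH 6.0, with 2% galactose.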
# RE007 growth inh: less growth of the S. pombe RE007 Vpr strain. S. pombe RE007 Vpr strain, BacTiter-Glo ATP luminescence, 24 h; control for the full effect not named in the record. Potency, µM (highest dose often 92.2 µM), inactives show at the highest dose activity change, negative = less growth. hit rate 0.21% among 360,000. AID 651644; active = well fitted falling curve with a large enough effect; inconclusive = small, poorly fitted or top-dose-only effect; inactive = no such curve, though single readings can be large or run the other way;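 further: on the % scale 0 is the no-effect control and ±100 the full control effect; nearly all actives have a fitted effect of over 50% in size; the assay follows cell death caused by Vpr and the record does not say whether a fall means rescue or toxicity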
#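 Fission yeast RE007 carrying one integrated HIV-1 vpr copy, seeded at OD 0.01 in PMG+AL medium with 23 nL pinned compound. Grown 24 h at 30 degrees; viability read by BacTiter-Glo luminescence after 5 min.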
# SARS PLpro yeast: inhibitors of SARS-CoV papain-like protease in yeast. S. cerevisiae expressing SARS-CoV PLpro, growth rescue; control for the full effect not named in the record. Potency, µM (series often up to 32.9 µM), without a hit: at the highest dose activity, positive = growth rescue. hit rate 0.19% among 330,000; active means well fitted rising curve with a large enough effect; inconclusive means small, poorly fitted or top-dose-only effect; inactive means no such curve, though single readings can be large or run the other way; further: 0% is about no effect; nearly all actives have a fitted effect of over 55% in size; growth read by luminescence after 48 h
# Lassa entry inh: inhibitors of Lassa virus binding or cell entry. Potency, µM (doses to about 37.9 µM), inactives show at the highest dose activity change, negative = inhibition, actives largely listed as inhibitors. Lassa virus pseudotype entry inhibition, cell reporter; control for the full effect not named in the record. AID 540256. hit rate 1.2% among 300,000; active means well fitted inhibition curve with a large enough effect; inconclusive means small, poorly fitted or top-dose-only effect, or effect the other way; inactive means flat fitted curve, though single readings scatter; tested in HEK293 cells; further: on the % scale 0 is the no-effect control and ±100 the full control effect; nearly all actives have a fitted effect of over 50% in size; luciferase read-out
# MARV entry inh: Marburg virus entry inhibition; Marburg virus pseudotyped entry inhibition, cell reporter; control for the full effect not named in the record; about a third of the inactives were read at about 46 µM; Potency, µM (doses to about 37.8 µM), for inactives: top-dose activity change, negative = inhibition, most hits filed as inhibitors; hit rate 1.8% among 300,000; AID 540276; active = well fitted inhibition curve with a large enough effect; inconclusive = small, poorly fitted or top-dose-only effect, or effect the other way; inactive = flat fitted curve, though single readings scatter; tested in HEK293 cells; about a fifth of its hits are not listed in these tables; further: on the % scale 0 is the no-effect control and ±100 the full control effect; luciferase read-out
# Cruzain inh Det: inhibitors of Trypanosoma cruzi cruzain with detergent; Potency, µM, without a hit: max response, negative = inhibition, most hits filed as inhibitors; hit rate 0.43% among 200,000; purified cruzain, Z-FR-AMC fluorescence, 0.01% Triton; P25779;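 further: plate controls were neutral wells for no effect and buffer without enzyme for full effect; nearly all actives have a fitted effect of over 40% in size; top concentration of the series not given in the record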
#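 Detergent-containing run (0.01% Triton X-100) in acetate buffer pH 5.5 with 5 mM DTT: enzyme at 1.5 nM final, 15 min compound preincubation at room temperature, then 2 uM Z-FR-AMC substrate. Activity taken as 60 s fluorescence increase at 360/450 nm.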
# An asterisk follows results filed as active; u = inconclusive; x = no result given; [ ] = another dose, or the depositor's remark. Unless noted, the call rests on the fitted dose curve; in most records, active means well fitted curve in the direction sought with a large enough effect; inconclusive means small, poorly fitted or top-dose-only effect, or another doubt; inactive means no such curve, though single readings can be large; an effect the other way counts as inactive or inconclusive. Potency means the concentration at half of the fitted maximal effect.
SMILES	2A StopGo	Cruzain noTriton	NS1 function inh	RE007 growth inh	SARS PLpro yeast	Lassa entry inh	MARV entry inh	Cruzain inh Det
COCc1nnc(SCC(=O)NC(C)c2ccccc2)n1-c1ccccc1 (stereo not given)	-5.8%	-1.7%	-9.2%	-3.4%	-1.5%	3.0%	12.5%	0.6%
CCCCSCc1[nH]c(=O)[nH]c1C(=O)CCCCC(=O)OCC	11.9%	3.1%	1.6%	-11.2%	-0.8%	u	-3.6%[46.1 µM]	1.4%
CC(=O)c1[nH]c(C)c(C(=O)NCCc2ccc(C)cc2)c1C	-5.6%	u	x	x	x	-11.8%[46.1 µM]	x	-5.8%
COc1cc(C(=S)N2CCOCC2)ccc1OC(=O)c1cc(OC)c(OC)c(OC)c1	-16.1%	x	0.2%	-5.0%	0.9%	-10.1%[46.1 µM]	0.3%[46.1 µM]	x
Cc1cc(NC(=O)c2ccc(F)cc2)n(-c2ccccn2)n1	-18.9%	x	x	4.3%	-4.0%	u	-16.3%[46.1 µM]	x
Nc1cc(S(=O)(=O)c2ccc(O)c(N)c2)ccc1O	-10.7%	x	0.4%	10.0%	2.4%	x	x	x
Cc1ccc(CCNC(=O)CCn2nc(-c3ccc(Cl)cc3)ccc2=O)cc1	-12.0%	16.8%	x	x	x	2.7%[46.1 µM]	x	0.5%
CCOc1ccc(S(=O)(=O)N(C)CC(=O)N2CCCC2)cc1	-14.6%	x	-7.3%	19.3%	2.0%	-10.6%[46.1 µM]	23.4%[46.1 µM]	x
O=C(N/N=C\c1cc2c(cc1[N+](=O)[O-])OCO2)c1cccs1	-5.4%	x	6.5%	-3.9%	-2.8%	28.2%[46.1 µM]	u	x
Cc1nc(-c2ccc(S(=O)(=O)N3CCN(c4cc(Cl)ccc4C)CC3)cc2)co1	-24.9%	-27.3%	x	x	x	18.1%[46.1 µM]	x	-5.9%
CCC(=O)c1ccc(OCC(=O)Nc2cc(S(=O)(=O)N3CCCCC3)ccc2OC)cc1	-42.7%	x	25.2%	-2.5%	4.9%	x	x	x
CCNC(=O)C1CCN(c2nnc(C)c3c(C)n(-c4ccc(OC)cc4)nc23)CC1	-13.4%	-0.2%	x	x	x	8.4%[46.1 µM]	x	-6.1%
CC1(C)Cc2cccc(OCC(=O)Nc3ccccc3N3CCOCC3)c2O1	u	-12.8%	-41.2%	-15.5%	3.1%	-27.9%	u	2.9%
COc1ccc(N2CCN(C(=O)Cn3nnc(-c4ccc(N(C)C)cc4)n3)CC2)cc1	8.7%	x	x	-2.9%	4.0%	0.9%	22.9%[46.1 µM]	x
C/C(Cl)=C\Cn1c(Nc2ccccc2)nc2c1c(=O)n(C)c(=O)n2C	0.0%	-3.8%	-22.0%	-5.1%	9.5%	-16.3%	u	-5.8%
Cc1ccc(N2CC(C(=O)Nc3nnc(C)s3)CC2=O)cc1 (stereo not given)	x	8.0%	-12.6%	3.3%	1.5%	16.5%	2.7%	2.2%
NS(=O)(=O)c1ccc(CNC(=O)c2cc(S(=O)(=O)N3CCOCC3)c(Cl)cc2Cl)cc1	-11.3%	x	x	-0.6%	-0.6%	0.2%	u	x
CC(=O)Nc1ccc(C(=O)N/C(=C/c2ccccc2)C(=O)N2CCCCC2)cc1	16.7%	x	-4.0%	6.1%	-0.6%	u	1.6%[46.1 µM]	x
Cc1ccc([N+](=O)[O-])cc1S(=O)(=O)NCCc1c(C)[nH]c2c(C)cccc12	-17.7%	-6.4%	8.3%	-5.0%	13.8%	-25.0%	10.5%	-12.1%
Cc1ccc(N2C(=O)c3n[nH]c(C)c3C2c2cccnc2)cc1 (stereo not given)	10.0%	3.2%	-10.0%	-3.1%	1.3%	4.6%	28.6%	1.3%
CCCCN(Cc1cc2cccc(C)c2[nH]c1=O)S(C)(=O)=O	-23.0%	x	-4.5%	-7.4%	0.3%	x	x	x
O=C(NC1CCCCC1)C(Cc1ccccc1)NS(=O)(=O)c1cccs1 (stereo not given)	x	0.7%	2.5%	-17.8%	-9.4%	-10.4%	-12.9%	4.9%
CCCc1cc(C(=O)OC)c(NC(=O)CCCC(=O)O)s1	-8.4%	x	-2.1%	122.0%	0.1%	-23.9%[46.1 µM]	5.3%[46.1 µM]	x
Cc1ccc(Nc2nc(-c3ccc(S(=O)(=O)N4CCCC4)cc3)cs2)cc1C	u	12.6µM*	u	-1.7%	-4.8%	u	u	3.7%
O=C(Nc1nnc(CC2=CCCCC2)s1)Nc1ccccc1F	42.5%[activator]	x	-3.7%	-10.5%	1.3%	-23.1%	-6.9%[46.1 µM]	x
CCOC(=O)CSc1nnc(SCCN2C(=O)c3ccccc3C2=O)s1	-21.7%	-4.3%	-11.9%	-1.2%	3.2%	0.4%	-4.1%	-6.7%
CCOC(=O)C1CCN(C(=O)NC23CC4CC(CC(C4)C2)C3)CC1	x	-2.3%	0.1%	81.4%	3.1%	18.8%	17.7%	0.5%
COc1cccc(CNC(=O)c2ccc(NC(=O)CC3SC(N4CCCCC4)=NC3=O)cc2)c1 (stereo not given)	-9.6%	x	x	4.8%	1.2%	3.6%	3.6%	x
O=C(O)c1ccccc1NCN1C(=O)C2CC=C(Cl)CC2C1=O (stereo not given)	-20.7%	7.9%	5.2%	34.0%	-6.7%	7.5%	16.9%	11.1%
O=C(CCC(=O)N1CCCC1)Nc1nnc(C(F)(F)F)s1	x	4.9%	-7.0%	-2.3%	4.3%	0.0%	22.7%	4.5%
CCOC(=O)N1CCN(C(=O)CSc2nc3c(cnn3-c3ccc(C)cc3)c(=O)[nH]2)CC1	0.0%	x	0.2%	1.7%	2.0%	x	x	x
O=c1c2ccccc2nnn1Cc1ccccn1	29.7%	-8.2%	2.9%	17.3%	-2.0%	7.6%	-3.6%	-0.1%
COc1ccc(N(C(=O)c2snc(C(N)=O)c2N)C(C(=O)NC2CCCC2)c2ccco2)cc1OC (stereo not given)	-11.8%	x	-27.1%	-4.7%	-5.4%	u	-7.1%[46.1 µM]	x
CCN(CCCCCCN)c1ccc2c(=O)[nH][nH]c(=O)c2c1	-8.5%	x	x	15.2%	-5.3%	17.2%	4.7%[46.1 µM]	x
O=C(NCCNc1ccc([N+](=O)[O-])cc1)c1ccccc1F	-2.8%	x	-15.9%	3.6%	1.8%	x	x	x
CCOc1ccc(CCNC(=O)CCNC(=O)c2ccc(Br)cc2)cc1OCC	5.6%	x	0.2%	-7.1%	1.0%	x	x	x
CC1CN(C(=O)CCC(=O)Nc2cc(F)ccc2F)c2ccccc2S1 (stereo not given)	-9.8%	-5.4%	x	x	x	-3.0%[46.1 µM]	x	-6.9%
Cc1ccc(-n2ncc(C(=O)NCCCN3CCN(c4cccc(Cl)c4)CC3)c2-n2cccc2)cc1	u	0.8%	x	x	x	9.8%[46.1 µM]	x	-4.2%
COc1cccc(-c2cc(C(F)(F)F)n3ncc(C(=O)OC(C)C)c3n2)c1	4.7%	-13.6%	x	x	x	-4.6%[46.1 µM]	u	-2.6%
Cc1cc(=O)n2nc(N3CCCC(C(=O)NCCc4ccccc4)C3)sc2n1 (stereo not given)	22.8%	3.7%	2.8%	-6.7%	-2.4%	17.5%	-4.5%	0.1%
COc1ccccc1C(CNC(=O)c1cccc(NS(=O)(=O)c2ccc(C)c(F)c2)c1)N1CCCC1 (stereo not given)	-5.2%	x	x	-6.3%	1.6%	-0.8%	u	x
O=C(COC(=O)CNC(=O)c1ccc(-c2ccccc2)cc1)NCc1ccco1	-5.0%	x	x	-10.1%	-4.8%	2.3%	6.1%	x
CCOC(=O)/C(C#N)=C/c1c(N2CCN(c3ccccc3)CC2)nc2c(C)cccn2c1=O	-21.2%	x	-4.6%	8.9%	1.7%	x	x	x
Cc1cc(C)cc(C(=O)Nc2c3c(nn2C(C)(C)C)CS(=O)(=O)C3)c1	-8.8%	x	12.9%	-5.4%	7.5%	-5.0%[46.1 µM]	-18.4%[46.1 µM]	x
CC(C)c1cccc(OCCCCN(C)C)c1	-9.8%	x	x	3.2%	-0.4%	u	u	x
CCOC(=O)C1CCCN(C(=O)c2cc(Nc3ccc(OC)c(OC)c3)nc3ccccc23)C1 (stereo not given)	u	9.7%	-34.8%	1.6%	-8.6%	-15.2%	11.2µM*	-2.8%
Cc1ccc2oc(=O)c3cnn(CC(=O)N4CCCCC4C)c3c2c1 (stereo not given)	-12.4%	-5.3%	4.4%	-3.7%	-0.3%	x	x	-8.5%
CC(CCc1ccccc1)N(C)CC(O)c1cccc([N+](=O)[O-])c1 (stereo not given)	-9.2%	x	-2.9%	4.6%	6.0%	10.9%	u	x
CSc1nc(-c2ccco2)nn1C(=O)c1cccs1	4.7%	5.7%	-9.6%	-12.3%	-0.8%	u	11.0%	4.2%
CCCc1nc2ccc(NC(=O)c3cccs3)cc2c(=O)n1Cc1ccccc1Cl	-26.1%	-28.8%	1.8%	-6.2%	-1.0%	u	u	-4.7%
CC(=O)Nc1ccccc1C	-19.4%	-0.9%	x	0.0%	-9.7%	x	x	0.7%
O=C(CSc1nnc(NC(=O)c2ccco2)s1)Nc1ccc(F)cc1F	-12.1%	x	8.1%	-5.0%	-6.2%	1.3%	4.3%	x
COc1cccc(CN2CCN(Cc3nc(C(C)C)cs3)CC2CCO)c1 (stereo not given)	-25.6%	x	-0.2%	1.9%	0.6%	u	-10.7%[46.1 µM]	x
CC(c1ccccc1)C1CC(=O)N(c2ccc([N+](=O)[O-])cc2)C1=O (stereo not given)	-7.4%	x	22.1%	-27.3%	-3.3%	x	x	x
O=C(NC1CCCC1)C(c1cccnc1)N(C(=O)c1csnn1)c1ccccc1Cl (stereo not given)	-6.8%	x	-4.6%	-15.8%	0.1%	14.0%	-0.1%[46.1 µM]	x
Cc1ccc(NC(=O)c2nc(S(C)(=O)=O)ncc2N(Cc2ccco2)Cc2cccs2)c(C)c1	-23.2%	-12.9%	x	x	x	-11.0%[46.1 µM]	u	-4.1%
CCc1nc2cccnc2n1-c1ccc(CC(=O)NC(C)CC)cc1 (stereo not given)	-5.4%	x	4.2%	-11.1%	1.0%	x	x	x
